From PubChem
FEN1 inhibitor: qHTS Assay for the Inhibitors of Human Flap endonuclease 1 (FEN1). P39748. Recombinant FEN1 flap cleavage, fluorescence, 15 min. Potency, µM (series often up to 114 µM), for inactives: at the top dose activity change, negative = inhibition, most hits filed as inhibitors. 390,000 tested, 0.35% active; further: nearly all actives have a fitted effect of over 65% in size
Target sequence (P39748 whole entry, looked up): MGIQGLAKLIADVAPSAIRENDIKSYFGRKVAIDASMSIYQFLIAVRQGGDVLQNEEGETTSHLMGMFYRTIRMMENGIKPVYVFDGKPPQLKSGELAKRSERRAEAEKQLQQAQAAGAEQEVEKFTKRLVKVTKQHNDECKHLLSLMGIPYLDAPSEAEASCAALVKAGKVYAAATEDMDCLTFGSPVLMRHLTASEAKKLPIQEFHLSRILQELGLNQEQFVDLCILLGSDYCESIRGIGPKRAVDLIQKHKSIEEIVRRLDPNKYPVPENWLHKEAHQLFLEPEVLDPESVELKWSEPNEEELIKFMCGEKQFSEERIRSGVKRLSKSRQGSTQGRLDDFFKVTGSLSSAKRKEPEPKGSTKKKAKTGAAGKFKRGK
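In this screen, 50 nM flap DNA substrate was added to 10 nM FEN1 pretreated with compound for 15 min at room temperature; cleavage was followed with reads at 0 and 15 min, and Hill fitting gave concentration–response parameters.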
N370S GC mod: qHTS Assay for Inhibitors and Activators of N370S glucocerebrosidase as a Potential Chaperone Treatment of Gaucher Disease; Potency, µM (titrated, usually from 59.4 µM), inactives show at the top dose activity change, negative = inhibition, actives largely listed as inhibitors; 330,000 tested, 0.092% active; AID 2101, 2009; N370S GC spleen homogenate, 4MU-glucoside fluorescence;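 further: 0% = full enzyme activity and -100% = no enzyme basal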
Starred values were filed as active, the others as inactive; ? = inconclusive; · = no result given. The call rests on the fitted dose curve; in most records, active means well fitted curve in the direction sought with a large enough effect; inconclusive means small, poorly fitted or top-dose-only effect, or another doubt; inactive means no such curve, though single readings can be large; an effect the other way counts as inactive or inconclusive. Unless noted, on the % scale 0 is the no-effect control and ±100 the full control effect; potency means the concentration at half of the fitted maximal effect.

[1] CCOC(=O)C1CCN(C(=O)c2cc(S(=O)(=O)N3CCOCC3)c(Cl)cc2Cl)CC1
[2] COc1ccc(/C=C(\C#N)C(=O)Nc2cc(S(=O)(=O)N3CCCCC3)ccc2N2CCCCC2)cc1
[3] CN(CC(=O)Nc1ccc(N2CCOCC2)cc1)C(=O)CCNC(=O)c1ccc(Br)cc1
[4] Cc1ccc(NC(=O)Cn2ccn(-c3ccc(F)c(F)c3)c(=O)c2=O)cc1C
[5] CCCCn1c(N)c(N(CC(C)C)C(=O)CSc2ccc3c(c2)OCCO3)c(=O)[nH]c1=O
[6] COc1ccc(NC(=O)CN(C)C(=O)c2ccc(=O)[nH]c2)cc1
[7] CCNc1nc(NC(C)C)nc(N(C#N)CC(=O)OC)n1
[8] CC1C(=O)N2CCCc3cc(NC(=O)COc4ccccc4)cc1c32 (stereo not given)

assay / entry	1	2	3	4	5	6	7	8
FEN1 inhibitor	2%	1%	-7%	-1%	14%	3%	-6%	3%
N370S GC mod	2%	15%	-3%	·	·	-12%	9%	-7%

[9] COCCN1C(=O)C(=O)/C(=C(/O)c2ccc(S(=O)(=O)N3CCOCC3)cc2)C1c1cccc(Cl)c1 (stereo not given)
[10] Cc1ccc(S(=O)(=O)CCSc2nc(C)cc(C(F)(F)F)c2C#N)cc1
[11] CCOc1cccc2sc(NC(=O)CC)nc12
[12] CCOC(=O)C1CCN(C(=O)/C=C/c2cccs2)CC1
[13] CCOC(=O)c1[nH]c2ccccc2c1NC(=O)c1c(F)cccc1F
[14] Cc1ccccc1CC1(CO)CCCN(C(=O)c2ccc3ncccc3c2)C1 (stereo not given)
[15] COc1ccccc1N(CC(=O)NCC1CCCO1)C(=O)CNS(=O)(=O)c1ccc(Cl)cc1 (stereo not given)
[16] COc1ccc(-n2nc(C(=O)NCC(=O)N3CCCCCC3)c3ccccc3c2=O)cc1OC

assay / entry	9	10	11	12	13	14	15	16
FEN1 inhibitor	4%	-12%	-5%	-2%	24%	-7%	-14%	-8%
N370S GC mod	2%	3%	9%	2%	·	-4%	-5%	0%

[17] O=C(Nc1ccncc1)c1ccc(Cl)c(S(=O)(=O)N2CCc3ccccc32)c1
[18] CCc1nn2c(=O)cc(COC(=O)c3cc(Cl)c(OC)c(OC)c3)nc2s1
[19] COc1ccc(-n2c(COc3cccc4cccnc34)nnc2SCC(=O)O)cc1
[20] Cc1ccc(S(=O)(=O)NC2(C(=O)O)CCCCC2)cc1
[21] CCOc1ccc(CCNC(=O)CCC(=O)N2CCOc3ccc(C)cc32)cc1OCC
[22] Cc1ccccc1NC(=O)Cc1nnc(N)s1
[23] O=C(NCC(c1cccnc1)N1CCc2ccccc2C1)C(=O)Nc1ccccc1F (stereo not given)
[24] Cc1ccc(C(C[N+](=O)[O-])c2c(N)n(C)c(=O)n(C)c2=O)cc1 (stereo not given)

assay / entry	17	18	19	20	21	22	23	24
FEN1 inhibitor	-6%	-7%	21%	0%	-5%	10%	-1%	20%
N370S GC mod	-22%	·	5%	5%	-8%	0%	·	3%

3 of the entries above in order of their number in N370S GC mod, smallest number first.
| no. | Compound | N370S GC mod |
| --- | --- | --- |
| 8 | CC1C(=O)N2CCCc3cc(NC(=O)COc4ccccc4)cc1c32 (stereo not given) | -7% |
| 19 | COc1ccc(-n2c(COc3cccc4cccnc34)nnc2SCC(=O)O)cc1 | 5% |
| 2 | COc1ccc(/C=C(\C#N)C(=O)Nc2cc(S(=O)(=O)N3CCCCC3)ccc2N2CCCCC2)cc1 | 15% |

Further structures follow:
[25] CCC(=Nc1ccc(N)cc1)C1=C(O)C(C(=O)OC)C(C)(C)CC1=O (stereo not given)
[26] Cc1ccc(-n2[nH]c(C)c(C=Nc3ccc(S(=O)(=O)Nc4nccs4)cc3)c2=O)c(C)c1
[27] CC(=O)CSc1nnc(NC(=O)CCc2ccccc2)s1
[28] O=C(N/C(=C\c1ccc(Br)cc1)C(=O)N1CCOCC1)c1ccco1
[29] COc1ccc(N2CC(C(=O)Nc3ccc(S(=O)(=O)Nc4nc(C)cc(C)n4)cc3)CC2=O)cc1 (stereo not given)
[30] COc1ccccc1CNS(=O)(=O)c1ccc2c(c1)N(C(C)=O)CCO2
[31] O=C(Cn1cnc2ccccc2c1=O)NCCC(=O)N1CCN(c2ccccc2)CC1
[32] COc1ccc(/C=C2/N=C3CCCCCN3C2=O)cc1OC

assay / entry	25	26	27	28	29	30	31	32
FEN1 inhibitor	-16%	·	3%	0%	9%	12%	-1%	-2%
N370S GC mod	-5%	-11%	0%	-17%	1%	1%	9%	-10%

[33] O=C(O)c1ccccc1N/N=C/C1=C(N2CCOCC2)C(=C\c2ccccc2)/CC1
[34] CCc1nnc(NS(=O)(=O)c2ccc(NC(=O)Nc3ccc(OC)cc3)cc2)s1
[35] CC(C)[C@H](NC(=O)c1ccccc1)C(=O)OCC(=O)NCc1ccc2c(c1)OCO2
[36] CC(Sc1nnc(C2CC2)n1Cc1ccccc1)C(=O)N1CCNC1=O (stereo not given)
[37] O=C(CSc1nc2ncccc2[nH]1)NC1CCCC1
[38] CCCCC(=O)Nc1nnc(SCC(=O)NCC2CCCO2)s1 (stereo not given)
[39] CC(C)[C@H](NC(=O)N1c2ccccc2NC(=O)[C@@H]1C(C)C)C(=O)N1CCC[C@H]1C(=O)O
[40] O=C(Oc1ccc(-c2nnco2)cc1)N1CCOCC1

assay / entry	33	34	35	36	37	38	39	40
FEN1 inhibitor	-1%	-8%	-3%	-3%	19%	2%	-2%	8%
N370S GC mod	-9%	7%	·	·	1%	0%	-3%	-7%

[41] CNc1ccc(Cl)cc1C(N)=O
[42] Cc1ccc(NC(=O)CCC(=O)OCC(=O)c2ccc(Oc3ccc([N+](=O)[O-])cc3)cc2)c(C)c1
[43] Cc1cccn2cc(-c3c[nH]c4ccccc34)nc12
[44] Cc1cccc(C)c1NC(=O)C(C)Sc1nnc(C)n1CC1CCCO1 (stereo not given)
[45] CCN1CCN(C2CCN(C(C)=O)CC2)CC1
[46] COc1ccc2nc(SCCN(C)C)[nH]c2c1
[47] CCN(C(=O)C(NS(=O)(=O)c1ccc(Br)s1)c1ccccc1)c1ccc(C)c(C)c1 (stereo not given)
[48] CC1=C(C(=O)O)N2C(=O)C(NC(=O)c3nn(C)cc3Cl)C2SC1 (stereo not given)

assay / entry	41	42	43	44	45	46	47	48
FEN1 inhibitor	11%	-3%	-18%	15%	·	4%	-20%	8%
N370S GC mod	?	-3%	22%	0%	-4%	-10%	·	-8%

An excerpt from above in order of SMILES length, lowest first:
[41] CNc1ccc(Cl)cc1C(N)=O
[45] CCN1CCN(C2CCN(C(C)=O)CC2)CC1
[43] Cc1cccn2cc(-c3c[nH]c4ccccc34)nc12
[48] CC1=C(C(=O)O)N2C(=O)C(NC(=O)c3nn(C)cc3Cl)C2SC1 (stereo not given)
[47] CCN(C(=O)C(NS(=O)(=O)c1ccc(Br)s1)c1ccccc1)c1ccc(C)c(C)c1 (stereo not given)

assay / entry	41	45	43	48	47
FEN1 inhibitor	11%	·	-18%	8%	-20%
N370S GC mod	?	-4%	22%	-8%	·

Additional entries
[49] O=C(Nc1ccncc1)c1cn(-c2ccccc2)nc1-c1cccs1
[50] O=C(/C=C/c1ccc(Br)cc1)NC1CCCCCC1
[51] CCOC(=O)c1c(C)[nH]c(C(=O)COC(=O)c2cnc(C)cn2)c1C
[52] Cc1cccc[n+]1CC(=O)Nc1ccc([N+](=O)[O-])cc1
[53] N/C(=N\c1nc2c(c(=O)[nH]1)CCC2)Nc1ccccc1C(F)(F)F
[54] Cn1c(=O)n(CC(=O)N2CCOCC2)c2ccccc21
[55] Cc1cc(-n2c(C)cc(C(=O)CN3C(=O)NC4(CCCCC4C)C3=O)c2C)no1 (stereo not given)
[56] C[C@H]1COC(=O)[C@H](CC(=O)OC(C)(C)C)C/C=C\C[C@@H](CC(=O)N(CCO)Cc2ccccc2)C(=O)N1

assay / entry	49	50	51	52	53	54	55	56
FEN1 inhibitor	2%	5%	-5%	1%	2%	-4%	0%	-16%
N370S GC mod	23%	10%	6%	-7%	8%	-1%	-8%	·

[57] O=C(CSc1nc(-c2ccco2)cc(C(F)(F)F)n1)Nc1ccc(C(=O)N2CCCCC2)cc1
[58] N/C(=N\O)c1ccc(Cl)cc1Cl
[59] Cc1c(NC(=O)/C(C#N)=C/c2ccc(-c3ccc(Cl)cc3)o2)c(=O)n(-c2ccccc2)n1C
[60] Clc1ccccc1-c1nc2ccccc2c2nncn12
[61] Clc1ccccc1Nc1ncnc2c1nnn2Cc1ccccc1
[62] Cc1ccc(/C=C/C(=O)OCC(=O)Nc2cccnc2Cl)cc1
[63] O=C(NCc1ccc(Cl)cc1)c1cc2c(nc3sccn32)s1
[64] Cc1ccc(OCc2nc(-c3ccc(Cl)cc3)n[nH]2)cc1

assay / entry	57	58	59	60	61	62	63	64
FEN1 inhibitor	15%	19%	10%	6%	-19%	21%	-4%	-5%
N370S GC mod	3%	-25%	8%	4%	-7%	·	-18%	24%

[65] COCCNc1nc(NCc2ccccc2OC)c2cnn(C)c2n1
[66] Cc1cc(OCC(=O)N2CCC(C(=O)O)CC2)c2c(C)c(C)c(=O)oc2c1
[67] COc1ccc(NC(C)=O)cc1C#N
[68] CN(CC(=O)NCc1ccc(Cl)cc1)S(=O)(=O)c1cccs1

assay / entry	65	66	67	68
FEN1 inhibitor	-1%	0%	10%	0%
N370S GC mod	·	-9%	5%	-2%

Complete entries as entered above. Screens in order: FEN1 inhibitor, N370S GC mod
`CCNc1nc(NC(C)C)nc(N(C#N)CC(=O)OC)n1` reads -6%, 9%
`CCOC(=O)C1CCN(C(=O)/C=C/c2cccs2)CC1` reads -2%, 2%
`CCOc1cccc2sc(NC(=O)CC)nc12` reads -5%, 9%
`Cc1cc(-n2c(C)cc(C(=O)CN3C(=O)NC4(CCCCC4C)C3=O)c2C)no1` (stereo not given) reads 0%, -8%
`COc1ccc(/C=C2/N=C3CCCCCN3C2=O)cc1OC` reads -2%, -10%

A portion of the library; most or all hits stand in other tables.
